From PubChem BioAssay
KCNQ2 pot: enhances the rat KCNQ2 potassium channel; O88943; CHO-K1 KCNQ2, FluxOR thallium flux fluorescence; active compounds read high; B-score at 10 µM; 310,000 tested, 0.54% active; AID 2239;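 active = fluorescence ratio B-score at least 3 SD of library B-scores, with initial fluorescence B-score within 3 SD, cut at about 5.3 in these data; same plate scores as AID 2156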;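 note: B-score of peak minus minimum over baseline fluorescence ratio after K+ and Tl+ stimulus; positive B-score means potentiation of KCNQ2 with more thallium influx and brighter signal; only the inactives scoring about 0 or higher are listed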
Target sequence (O88943 whole entry, looked up): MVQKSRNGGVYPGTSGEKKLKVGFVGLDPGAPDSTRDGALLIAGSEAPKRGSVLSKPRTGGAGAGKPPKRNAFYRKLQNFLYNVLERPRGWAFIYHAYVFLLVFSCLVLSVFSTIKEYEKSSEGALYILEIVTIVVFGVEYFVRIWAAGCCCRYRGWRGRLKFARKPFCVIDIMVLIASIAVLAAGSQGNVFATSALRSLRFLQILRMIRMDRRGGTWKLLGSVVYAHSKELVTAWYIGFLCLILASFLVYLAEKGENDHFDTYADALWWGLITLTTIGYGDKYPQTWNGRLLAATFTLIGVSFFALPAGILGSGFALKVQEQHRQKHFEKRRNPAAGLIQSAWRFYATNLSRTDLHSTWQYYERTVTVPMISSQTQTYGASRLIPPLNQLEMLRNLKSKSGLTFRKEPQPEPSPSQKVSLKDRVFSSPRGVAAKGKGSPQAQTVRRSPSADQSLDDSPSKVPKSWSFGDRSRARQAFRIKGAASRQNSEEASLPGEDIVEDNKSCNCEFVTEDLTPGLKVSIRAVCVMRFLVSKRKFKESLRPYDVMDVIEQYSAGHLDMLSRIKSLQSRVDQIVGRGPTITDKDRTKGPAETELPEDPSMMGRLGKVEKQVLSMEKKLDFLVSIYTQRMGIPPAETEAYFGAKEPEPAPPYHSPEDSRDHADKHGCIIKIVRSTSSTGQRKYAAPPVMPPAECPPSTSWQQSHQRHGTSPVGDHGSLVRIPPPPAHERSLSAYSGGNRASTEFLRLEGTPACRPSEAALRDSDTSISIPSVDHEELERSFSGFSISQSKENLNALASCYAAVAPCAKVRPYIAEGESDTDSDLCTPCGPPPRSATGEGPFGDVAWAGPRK
KCNQ2 pot baseline: second read-out of KCNQ2 pot, no call of its own (marks repeat the call); B-score; compound at 10 µM; measured here: initial fluorescence intensity artifact check;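 brightness before thallium and not channel activity; 0 = typical well and far values either way flag optical interference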
An asterisk follows results filed as active; . = not tested or not shown. The list is partial; the hit share may differ from the screen's.

KCNQ2 pot | KCNQ2 pot baseline | SMILES
0.01 | 0.43 | N#C/C(=C\c1ccc([N+](=O)[O-])cc1)c1nc(C2CC2)cs1
0.43 | 1.6 | Cn1ncc(Cl)c1C(=O)N1CCN(S(=O)(=O)c2cccs2)CC1
1.5 | -0.44 | CCc1ccc2nc3c(c(C(=O)O)c2c1)CCC3
0.39 | 1.3 | CC(=O)Cc1cc(=O)c2c(C)cc(O)c(C3OC(CO)C(O)C(O)C3O)c2o1 (stereo unspecified)
0.8 | -0.74 | O=C(c1ccc([N+](=O)[O-])cc1)N1CCSC1c1ccccc1Cl (stereo unspecified)
0.32 | 1 | Cc1cccc(N2C(=O)c3ccc(C(=O)Nc4c[nH]c(=O)[nH]c4=O)cc3C2=O)c1
0.78 | 0.64 | Nc1cc(OCC(F)(F)F)cc(OCC(F)(F)F)c1
0.99 | -1.5 | O=C(CSc1nc2ccccc2[nH]1)Nc1ccc2c(c1)CCC2
0.15 | -0.05 | CCC1=Nc2cc(C(=O)NCCN3CCOCC3)ccc2Sc2ccc(C)cc21
0.03 | 2.3 | COc1ccc(C(=O)CSc2cc(C)nc3nc(C)nn23)cc1OC
0.92 | -0.38 | CCCCC[n+]1ccn(-c2nc3ccccc3nc2[N-]S(=O)(=O)c2ccc(C)cc2)c1
0.4 | -0.46 | COC(=O)c1ccc(CSc2ncnc3c2sc2nc(N4CCOCC4)c4c(c23)CCCC4)o1
0.43 | -0.73 | COc1ccc2c(c1)c(CC(=O)OCC(=O)O)c(C)n2C(=O)c1ccc(Cl)cc1
1.1 | -1.1 | COc1ccc(C(=O)NCCCN=C2NS(=O)(=O)c3ccccc32)cc1
0.54 | -0.93 | Cc1cccc(S(=O)(=O)Nc2nc3ccccc3nc2NCC2CCCO2)c1 (stereo unspecified)

4 structures out of the list, arranged by number of heavy atoms, ascending:
KCNQ2 pot | KCNQ2 pot baseline | SMILES
0.01 | 0.43 | N#C/C(=C\c1ccc([N+](=O)[O-])cc1)c1nc(C2CC2)cs1
0.99 | -1.5 | O=C(CSc1nc2ccccc2[nH]1)Nc1ccc2c(c1)CCC2
1.1 | -1.1 | COc1ccc(C(=O)NCCCN=C2NS(=O)(=O)c3ccccc32)cc1
0.54 | -0.93 | Cc1cccc(S(=O)(=O)Nc2nc3ccccc3nc2NCC2CCCO2)c1 (stereo unspecified)

One compound at a time (already shown). Screens in order: KCNQ2 pot | KCNQ2 pot baseline
O=C(c1ccc([N+](=O)[O-])cc1)N1CCSC1c1ccccc1Cl (stereo unspecified) reads 0.8 | -0.74
COc1ccc(C(=O)CSc2cc(C)nc3nc(C)nn23)cc1OC reads 0.03 | 2.3
CC(=O)Cc1cc(=O)c2c(C)cc(O)c(C3OC(CO)C(O)C(O)C3O)c2o1 (stereo unspecified) reads 0.39 | 1.3
COc1ccc(C(=O)NCCCN=C2NS(=O)(=O)c3ccccc32)cc1 reads 1.1 | -1.1
N#C/C(=C\c1ccc([N+](=O)[O-])cc1)c1nc(C2CC2)cs1 reads 0.01 | 0.43

Further compounds follow:
KCNQ2 pot | KCNQ2 pot baseline | SMILES
1.4 | 1.6 | Cc1cc(C)nc(SCC(=O)OC(C)C(=O)Nc2ccccc2)n1 (stereo unspecified)
0.93 | 0.65 | CC(=O)N1c2ccc(S(=O)(=O)N3CCC(C(=O)NC4CCCCC4)CC3)cc2CC1C (stereo unspecified)
0.17 | -0.56 | CCCCN(CC)CCNC(=O)C1c2cc(OC)c(OC)cc2C(=O)N2CCc3ccccc3C12 (stereo unspecified)
0.03 | 1.2 | CCOC(=O)C1CCCN(S(=O)(=O)c2ccc3c(c2)N(C)C(=O)CC(=O)N3C)C1 (stereo unspecified)
1.3 | -0.16 | O=C(CCCn1c(=O)oc2ccccc21)NC1CCCCCC1
0.01 | -0.3 | NC(=O)c1ccc(C(=O)c2ccc([N+](=O)[O-])cc2)cc1
0.26 | -0.46 | COC(=O)c1cc(-c2ccc(NC(C)=O)cc2)nc2ccccc12
0.77 | -1 | CCOc1ccc(C(=O)Nc2cccc3ncccc23)cc1Br
0.27 | -1.7 | COC(=O)c1ccc(N2C(=O)c3cc(N4CCOCC4)c([N+](=O)[O-])cc3C2=O)cc1
0.97 | -1.2 | CCn1nc(NC(=O)c2ccncc2)c2cc3ccccc3nc21
0.4 | 0.74 | COc1ccc(CCNC(=O)CCC(=O)n2ncc3ccc(Cl)cc32)cc1OC
0.62 | 0.07 | Cc1c(Cl)cccc1NC(=S)NC1CCN(C(C)C)CC1
1.5 | 2 | COc1ccc(-c2cccc(NC(=O)c3ccc4c(c3)OCO4)c2)nn1
0.35 | -0.12 | COC(=O)c1nn(-c2ccccc2)c(Sc2ccccc2)c1/C=N/O
0.66 | -0.75 | CC1CCN(CCOCCOc2ccccc2-c2ccccc2)CC1
2.1 | 0.41 | O=C(N/N=C/c1cccc(C(F)(F)F)c1)c1ccc(O)cc1
0.84 | 0.27 | Clc1nc2nc3n(c2nc1Cl)CCC3
0.62 | -1.4 | CCN(CC)c1ccc(-c2nn3c(-c4cccnc4)nnc3s2)cc1
0.53 | 0.03 | CC1(C)CC(=O)c2c(-c3cccs3)n[nH]c2C1
4.7 | -1.1 | Cc1ccc(-c2nc3ccc(C(=O)O)cc3nc2-c2ccc(C)cc2)cc1
1.2 | -1.5 | CCCN(CCC)CCCNC(=O)c1cn(C)c2ccc(S(=O)(=O)N(C)C3CCCCC3)cc2c1=O
0.97 | 1.2 | CCSc1nnc(NC(=O)C(C)C)s1
0.63 | -0.97 | O=C1NC(c2cccc([N+](=O)[O-])c2)Oc2ccccc21 (stereo unspecified)
0.29 | -0.81 | COC(=O)c1ccccc1N1C(=O)[C@@H]2C(c3ccc(Br)cc3)=NO[C@@H]2C1=O
0.71 | -0.62 | O=C(NC1=NCCS1)c1cccc(S(=O)(=O)N2CCc3ccccc32)c1
0.13 | -3.8 | O=C(c1ccc(S(=O)(=O)N2CCOCC2)cc1)N(Cc1ccco1)Cc1cccs1
1.4 | -0.14 | c1ccc(Cc2nn3c(-c4ccncc4)nnc3s2)cc1
0.27 | -0.78 | Cc1ccccc1OCC(=O)NC1=NCCS1
0.06 | 0.6 | COc1ccc(CN2CCCC(C(=O)N3CCCC3)C2)c(OC)c1 (stereo unspecified)
0.19 | -1.5 | CCCCOC(=O)N/N=C/C=C/c1ccccc1
0.63 | -1.6 | NS(=O)(=O)c1cccc(NC(=O)CSc2nnc(C3CC3)n2Cc2ccccc2)c1
0.74 | 0.34 | O=S(=O)(c1ccc(F)cc1)N1CCN(c2ccc(-c3ccccc3)nn2)CC1
0.75 | -0.63 | CCN(CC)CCn1c2ccc(Cl)cc2c2nc(C)sc21
0.39 | -1.1 | CC(C)Oc1ccc(S(=O)(=O)N(C(C)C)C(C)C)cn1
1.7 | -0.44 | CCOc1ccc(Nc2nc(N)c([N+](=O)[O-])c(N3CCN(C)CC3)n2)cc1
1.6 | 0.22 | CN(C1CCCCC1)S(=O)(=O)c1ccc(S(=O)(=O)N2CCN(CCC#N)CC2)cc1
0.39 | 0.01 | Clc1ccc(/C=N/Nc2nc(Cl)nc3ccccc23)cc1
-5.5 | . | O=C(Cc1cccs1)N1CCN(c2ccc([N+](=O)[O-])cc2)CC1
1.1 | -0.55 | CSC1=NCCN1S(=O)(=O)c1ccc(NC(C)=O)cc1
0.76 | -0.27 | COc1ccc(CCNC(=S)NC2CCN(Cc3ccccc3)CC2)cc1
0.65 | 0.14 | CCn1cc(CCC(=O)NC(C)c2ccccc2)c2ccccc21 (stereo unspecified)
5.8* | 0.01* | COc1cc(Cl)c(C)cc1NC(=O)CC1CCCC1
0.45 | 1.9 | Cc1ccc(C2=NCCn3c2c2ccc([N+](=O)[O-])cc2[n+]3[O-])cc1
1.9 | -2.3 | COCCNC(=O)CCn1nc(-c2ccc(Cl)cc2)ccc1=O
0.17 | -0.01 | Cc1onc(-c2c(F)cccc2Cl)c1C(=O)Nc1sc2c(c1C(N)=O)CCC2
1.3 | -1.2 | C=CCn1c(CNC(=O)c2cccs2)nnc1SCC(=O)Nc1ccc(C(=O)O)cc1
0.93 | -1.4 | Cc1cccc(C)c1NC(=O)N1CCC(N2CCCCC2)CC1
0.01 | -1.1 | CC(=O)C1=C(O)C(=O)N(Cc2ccccc2)C1c1cccs1 (stereo unspecified)
0.1 | -0.1 | O=C(N/N=C/c1cccs1)c1c[nH]c2ccccc12
0.06 | 0.39 | COc1ccc(Cl)cc1NC(=O)Cn1c(NCCO)nc2ccccc21
0.61 | -2.4 | COc1ccc(C(=O)NNC(=O)CSc2nc3c(c(=O)n(C)c(=O)n3C)n2C)cc1
0.17 | -0.08 | COc1ccc(NC(=O)Cn2c(=O)oc3cc(Cl)ccc32)c(OC)c1
1.6 | 0.67 | O=C1[C@@H]2[C@H](C(=O)N1O)[C@H]1C=C[C@@H]2C1
0.15 | 0.31 | N#CCCC1CCCC=C1N(Cc1ccccc1)C(=O)C(Cl)Cl (stereo unspecified)
0.39 | 0.07 | Cc1ccc(OC(=O)CCC(=O)OCCCC(F)(F)C(F)(F)F)cc1
0.92 | 1.3 | O=C1NC2(CCCCC2)NN1c1ccccc1
1.2 | 0.58 | CCc1ccc(NC(=O)CSCCN2C(=O)c3ccccc3C2=O)cc1
0.95 | 0.03 | Cc1ccnc(NS(=O)(=O)c2ccc(NC(=O)CC(C)c3ccccc3)cc2)n1 (stereo unspecified)
1.1 | -0.78 | O=C(Nc1ccc(N2CCCC2)c(Cl)c1)c1ccc([N+](=O)[O-])cc1
1.2 | -2.1 | COc1ccc(CCNC(=O)CCS(=O)(=O)c2cccc3nsnc23)cc1OC

Next entries
KCNQ2 pot | KCNQ2 pot baseline | SMILES
0.89 | -1.7 | COc1ccc(N2CCN(c3nc4c(c(=O)[nH]c(=O)n4C)n3Cc3cccc(C)c3)CC2)cc1
0.92 | 0.09 | COCCOc1ccc(C(F)(F)F)cc1NC(=O)COC(=O)C12CC3CC(CC(O)(C3)C1)C2
0.24 | 2.1 | COc1ccccc1N1CCN(C2CCCN(C(=O)CCc3ccccn3)C2)CC1 (stereo unspecified)
1.9 | -1.6 | COc1ccc(CN2CCN(C(=O)C3CCC(CNS(=O)(=O)c4ccccc4)CC3)CC2)c(OC)c1OC (stereo unspecified)
1.2 | -1.7 | CC(C)(CNc1ccc([N+](=O)[O-])cc1Cl)CNS(C)(=O)=O
0.4 | 0.13 | CC(C)NC(=O)c1ccccc1NC(=O)C1CCCO1 (stereo unspecified)
0.01 | -0.6 | COc1cccc(NC(C)C(=O)N2CC(C)OC(C)C2)c1 (stereo unspecified)
0.88 | 0.48 | O=C(NCc1ccccc1)c1ccc(/C=N/O)nc1
0.27 | -0.48 | Cc1cc(Cl)nc(NC(=O)Nc2cccc(Cl)c2)n1
1.9 | 0.48 | CC(C)Cn1c(N)c(C(=O)COC(=O)CN2C(=O)C3CC=CCC3C2=O)c(=O)n(C)c1=O (stereo unspecified)
1.7 | -1.5 | CCC(C)NC(=O)C1=C(C)C(=O)OC12CCC(C)CC2 (stereo unspecified)
0.81 | -0.48 | COc1ccccc1C(=O)NC(CCSC)C(=O)OC(C)C(=O)NC1CC1 (stereo unspecified)
0.89 | 1.2 | CCOC(=O)c1cccc(C(=O)Nc2nc3ccc(OC)cc3s2)n1
0.95 | -0.01 | NC(=O)c1ccsc1NC(=O)COC(=O)c1cc(=O)[nH]c2ccccc12
0.2 | -0.03 | CC(=O)Oc1ccc(-c2nc3c(C)cccc3c(=O)o2)cc1
0.36 | -0.25 | CC(OC(=O)CCCC(=O)Nc1ccccc1)C(=O)c1ccccc1 (stereo unspecified)
0.42 | 1.2 | COc1ccccc1N1C(=O)S/C(=C\c2ccc(C)s2)C1=O
1.6 | 0.52 | CCn1ncc([N+](=O)[O-])c1C(=O)NC1CCCCC1
0.14 | -0.05 | CC1CCN(C(=O)CC(NC(=O)c2ccccc2Cl)c2ccccc2)CC1 (stereo unspecified)
0.04 | -0.13 | Cc1ccn(CCC(=O)NC2CCCc3c2cnn3-c2cccc(C)c2C)n1 (stereo unspecified)
0.47 | -0.75 | COCc1cc(C)nc(SCC[N+](C)(C)CC(=O)Nc2cccc(C)c2)c1C#N
0.2 | 0.74 | Cc1ccc(S(=O)(=O)N(C)C)cc1NC(=O)COC(=O)c1ccc2c(=O)n3c(nc2c1)CCC3
2.5 | 0.82 | CCCCCCCCN=C1NC(=O)CS1
0.57 | -0.53 | O=C(CN1C(=O)c2ccccc2S1(=O)=O)NCCSc1ccccc1
0.21 | 1.4 | Cc1cc(/C(N)=N/OC(=O)c2ccccc2Cl)no1
0.51 | -1.2 | CCn1c(SCc2ccc([N+](=O)[O-])cc2)nnc1C(C)NC(=O)c1ccccc1Br (stereo unspecified)
1.6 | 0.08 | Cc1cc(C)c2c(CC(=O)NNC(=O)c3ccccc3)coc2c1
0.27 | -1.9 | COc1cc(/C=N/Nc2nc3c(c(=O)n(C)c(=O)n3C)n2Cc2ccccc2)ccc1OC(=O)c1ccco1
0.73 | 0.36 | Cc1ccc(O)c(N=Nc2ccccc2)n1
1.9 | 0.24 | Cc1nn(-c2nnc(C)c(=O)[nH]2)c(C)c1SCC(=O)Nc1ccc(C(C)C)cc1
1 | -0.66 | CC(O)CNc1nc2sc3c(c2c(=O)n1Cc1ccco1)CCCCC3 (stereo unspecified)
0.03 | -0.82 | COc1ccc(CNc2nc3nc(C)c(Cl)c(C)n3n2)cc1OC
0.66 | 0.87 | CCCCNC(=O)c1ccc(S(=O)(=O)c2ccc(Cl)cc2)c(NC(C)=O)c1
1 | -1.7 | Cc1nc(SCC(=O)NCc2ccco2)[nH]c(=O)c1C
0.52 | 2.1 | CC1CC(C)CN(c2cc3c(cc2[N+](=O)[O-])C(=O)N(c2ccccc2)C3=O)C1 (stereo unspecified)
0.2 | -1.5 | COc1cccc(CC(=O)Nc2sc3c(c2C(N)=O)CCCC3)c1
1.2 | 1.4 | CCOc1ccc(N(CC(=O)NC2CCCCC2)C(=O)Cn2nnc(-c3ccc(C)o3)n2)cc1
1.3 | -0.09 | COC(=O)c1c(C)noc1-c1snnc1C
0.3 | -0.49 | COc1ccccc1CNC(=O)COC(=O)c1cc(S(=O)(=O)N2CCOCC2)ccc1Cl
0.19 | 0.25 | CCCNC(=O)Cn1c(=O)n(C)c2ccccc21
